# STAT3 binder = STAT3 (human) binding. calls only. P40763. 0.2% of 17,000 active. Small molecule microarray, His-STAT3 binding, anti-His fluorescence;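 active means compounds whose four printed spots each show fluorescence over background unusually high for their array block, chance value under 7%; compounds were printed on slides so no solution concentration is given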;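 further: about 2 pmol printed per array spot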
# Target sequence (P40763 whole entry, looked up): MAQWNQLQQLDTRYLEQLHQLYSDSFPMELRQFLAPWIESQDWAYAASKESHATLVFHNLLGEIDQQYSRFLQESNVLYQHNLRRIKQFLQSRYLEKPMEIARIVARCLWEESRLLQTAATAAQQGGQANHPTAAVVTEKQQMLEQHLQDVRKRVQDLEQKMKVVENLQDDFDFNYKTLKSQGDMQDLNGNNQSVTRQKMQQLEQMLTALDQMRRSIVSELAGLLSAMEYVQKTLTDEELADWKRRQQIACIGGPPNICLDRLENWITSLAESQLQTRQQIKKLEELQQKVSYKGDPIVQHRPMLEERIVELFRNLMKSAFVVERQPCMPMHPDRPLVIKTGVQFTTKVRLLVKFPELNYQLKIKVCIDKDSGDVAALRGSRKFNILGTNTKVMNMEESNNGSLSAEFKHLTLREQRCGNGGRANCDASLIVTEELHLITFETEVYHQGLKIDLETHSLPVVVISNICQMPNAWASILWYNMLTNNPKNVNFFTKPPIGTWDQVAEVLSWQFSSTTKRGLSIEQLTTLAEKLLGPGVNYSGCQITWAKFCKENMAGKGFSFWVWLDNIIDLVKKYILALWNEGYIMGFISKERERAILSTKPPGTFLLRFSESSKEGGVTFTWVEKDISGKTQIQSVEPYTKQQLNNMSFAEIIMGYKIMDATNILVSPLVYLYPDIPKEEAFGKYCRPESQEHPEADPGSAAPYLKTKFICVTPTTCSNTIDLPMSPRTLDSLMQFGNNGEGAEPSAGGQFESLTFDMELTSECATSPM
# p53 mut binder = binds human mutant p53 on microarray; calls only; small molecule microarray binding, anti-GST fluorescence; 0.4% of 17,000 active; AID 624136;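 active means compounds whose four printed spots each glow above background more than chance allows, each with a p-value under 7%; compounds were printed on slides so no solution concentration is given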;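 further: about 2 pmol printed per array spot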
# Myc binder = binds human c-Myc on microarray. P01106. small molecule microarray, His-c-Myc binding, anti-His fluorescence. calls only. 1.5% of 17,000 active. AID 624141;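 active means spot fluorescence over background with P-value below 7% in all four replicate spots, showing protein binding; compounds were printed on slides so no solution concentration is given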;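 further: score is binary with 100 for all four spots passing and 0 otherwise; about 2 pmol printed per array spot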
# ID4 SMM = binders of human ID4 protein | P47928 | calls only | AID 624137 | 1.2% of 31,000 active | small molecule microarray, Flag-ID4 binding, fluorescence F/B;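 active means spot signal over background at p below 0.07 in all four prints; compounds were printed on slides so no solution concentration is given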;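 further: a binder raises fluorescence above local background on the spot; about 2 pmol printed per array spot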
# Target sequence (P47928 whole entry, looked up): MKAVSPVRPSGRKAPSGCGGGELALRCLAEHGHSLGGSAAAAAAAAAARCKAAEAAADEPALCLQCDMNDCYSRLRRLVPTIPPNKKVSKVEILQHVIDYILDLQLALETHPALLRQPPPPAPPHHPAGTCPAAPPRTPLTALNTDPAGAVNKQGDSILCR
# Calls only; i = inactive; . = no result given; + = active, no number.
# Results follow in this order: STAT3 binder, p53 mut binder, Myc binder, ID4 SMM
> C[C@@H]1CN([C@H](C)CO)C(=O)Cc2cc(NC(=O)CCC(F)(F)F)ccc2O[C@@H]1CN(C)Cc1ccc2c(c1)OCO2
    i, i, i, i
> C[C@@H]1CN([C@@H](C)CO)C(=O)c2cc(NC(=O)NC3CCCCC3)ccc2O[C@@H]1CN(C)C(=O)Nc1ccc(F)cc1
    i, i, i, i
> C[C@@H]1CN([C@@H](C)CO)C(=O)c2cc(NC(=O)Nc3ccc(F)cc3)ccc2O[C@@H](C)CCCCO[C@H]1CN(C)C
    i, i, i, i
> C[C@]1(C(=O)NC2CC2)c2ccccc2C(=O)N(Cc2cc(C(F)(F)F)cc(C(F)(F)F)c2)[C@H]1c1ccc(CO)cc1
    i, i, i, .
> C[C@@H]1CN([C@H](C)CO)C(=O)c2cccc(NC(=O)Nc3cccc4ccccc34)c2O[C@H]1CN(C)S(=O)(=O)c1cn(C)cn1
    i, i, i, i
> C[C@H](CO)N1C[C@H](C)[C@@H](CN(C)S(=O)(=O)c2ccc3c(c2)OCCCO3)OCc2cn(nn2)CCCC1=O
    i, i, i, i
> Cc1ccc2nc(-c3ccc(NC(=O)COc4ccc([N+](=O)[O-])cc4)cc3)sc2c1
    i, i, i, i
> COc1ccc(CN(C)C[C@@H]2Oc3ccc(NC(=O)Nc4c(C)noc4C)cc3CC(=O)N([C@@H](C)CO)C[C@H]2C)cc1
    i, i, i, i
> C#CCNC(=O)C1=C[C@H](c2coc3ccccc3c2=O)C[C@H](OCCCCO)O1
    i, i, i, i
> C[C@H]1CN([C@@H](C)CO)C(=O)Cc2cc(N(C)C)ccc2O[C@H]1CN(C)S(=O)(=O)c1ccc(Cl)cc1
    i, i, i, .
> C[C@H]1CCCCO[C@@H](CN(C)C(=O)CCCN(C)C)[C@@H](C)CN([C@@H](C)CO)C(=O)c2cc(NS(C)(=O)=O)ccc2O1
    i, i, i, i
> Cc1noc(C)c1S(=O)(=O)Nc1ccc2c(c1)C(=O)N([C@@H](C)CO)C[C@H](C)[C@H](CN(C)CC1CC1)OCCCC[C@@H](C)O2
    i, i, i, .
> COc1ccc(S(=O)(=O)N(C)C[C@@H]2Oc3c(NS(=O)(=O)c4ccc(C)cc4)cccc3C(=O)N([C@H](C)CO)C[C@@H]2C)cc1
    i, i, i, .
> C[C@@H]1CN([C@@H](C)CO)C(=O)CCCn2cc(nn2)CO[C@@H]1CN(C)C(=O)Nc1ccc2c(c1)OCO2
    i, i, i, i
> Cc1noc(C)c1S(=O)(=O)N(C)C[C@@H]1Oc2c(NC(=O)C3CCOCC3)cccc2C(=O)N([C@@H](C)CO)C[C@@H]1C
    i, i, i, i
> C[C@@H]1CN([C@@H](C)CO)C(=O)c2cc(NS(=O)(=O)c3cn(C)cn3)ccc2O[C@@H]1CN(C)C(=O)Nc1ccc2c(c1)OCO2
    i, i, i, i
> CNC[C@@H]1Oc2c(NC(=O)NC3CCCCC3)cccc2C(=O)N([C@H](C)CO)C[C@@H]1C
    i, i, i, i
> C[C@@H]1CCCCO[C@H](CN(C)C(=O)CCCN(C)C)[C@@H](C)CN([C@H](C)CO)C(=O)c2cc(N(C)C)ccc2O1
    i, i, i, i
> C[C@@H]1CCCCO[C@H](CN(C)Cc2ccccc2)[C@@H](C)CN([C@H](C)CO)C(=O)c2cc(NS(=O)(=O)c3cccs3)ccc2O1
    i, i, i, i
> C[C@H](CO)N1C[C@H](C)[C@@H](CN(C)C(=O)Nc2ccc3c(c2)OCO3)Oc2ccc(NC(=O)NC3CCCCC3)cc2C1=O
    i, i, i, i
> C[C@@H]1CN([C@@H](C)CO)C(=O)c2cc(NS(C)(=O)=O)ccc2O[C@@H](C)CCCCO[C@H]1CN(C)C(=O)c1ccncc1
    i, i, i, i
> C[C@H]1CN([C@@H](C)CO)C(=O)c2cccc(NC(=O)NC3CCCCC3)c2O[C@@H]1CN(C)S(=O)(=O)c1ccccc1
    i, i, i, i
> C[C@@H]1CN([C@H](C)CO)C(=O)CCCn2cc(nn2)CO[C@H]1CN(C)S(=O)(=O)c1ccccc1
    i, i, i, i
> O=C1c2ccccc2[C@](Cc2ccccc2I)(C(=O)O)[C@H](c2ccc(CO)cc2)N1C1CCCCC1
    i, i, i, i
> C[C@H](CO)N1C[C@H](C)[C@@H](CN(C)C(=O)Nc2ccc(C(F)(F)F)cc2)Oc2ccc(NC(=O)NC3CCCCC3)cc2C1=O
    i, i, i, i
> CNC[C@@H]1Oc2c(NC(=O)c3ccncc3)cccc2C(=O)N([C@@H](C)CO)C[C@@H]1C
    i, i, i, i
> Cc1ccc(NC(=O)COc2ccc(C(=O)Nc3ccc(F)cc3)cc2)cc1
    i, i, i, i
> C[C@@H]1CN([C@@H](C)CO)C(=O)c2cccc(NC(=O)c3cnccn3)c2O[C@@H]1CN(C)C(=O)Nc1cccc2ccccc12
    i, i, i, .
> COc1cc2c(cc1NC(=O)c1cc(-c3cccnc3)nc3ccc(C)cc13)oc1ccccc12
    i, i, i, i
> CC(C)(O[C@@H]1O[C@H](CO)[C@@H](O)[C@H](O)[C@H]1O)[C@@H](O)COc1c2ccoc2cc2oc(=O)ccc12
    i, i, i, .

# The closing two entries of the section above come first, to join the parts:
# Results follow in this order: STAT3 binder, p53 mut binder, Myc binder, ID4 SMM
> COc1cc2c(cc1NC(=O)c1cc(-c3cccnc3)nc3ccc(C)cc13)oc1ccccc12
    i, i, i, i
> CC(C)(O[C@@H]1O[C@H](CO)[C@@H](O)[C@H](O)[C@H]1O)[C@@H](O)COc1c2ccoc2cc2oc(=O)ccc12
    i, i, i, .
> C[C@H](CO)N1C[C@H](C)[C@H](CN(C)C(=O)c2ccccc2)OCCCC[C@H](C)Oc2ccc(NS(=O)(=O)c3ccccc3)cc2C1=O
    i, i, i, i
> COC(=O)CN(c1cc([N+](=O)[O-])ccc1OC)S(C)(=O)=O
    i, i, i, i
> C[C@@H]1CN([C@H](C)CO)C(=O)Cc2cc(NC(=O)c3ccncc3)ccc2O[C@@H]1CN(C)C(=O)Nc1ccc(F)cc1
    i, i, i, i
> COc1ccc(S(=O)(=O)N(C)C[C@@H]2Oc3ccc(NS(=O)(=O)c4ccc(Cl)cc4)cc3CC(=O)N([C@H](C)CO)C[C@H]2C)cc1
    i, i, i, .
> C[C@@H]1CN([C@H](C)CO)C(=O)Cc2cc(NC(=O)C3CC3)ccc2O[C@@H]1CN(C)C
    i, i, i, i
> C[C@H](CO)N1C[C@H](C)[C@@H](CN(C)C)Oc2ccc(NC(=O)Nc3ccc(C(F)(F)F)cc3)cc2C1=O
    i, i, i, i
> Cc1noc(C)c1NC(=O)N(C)C[C@H]1Oc2c(NC(=O)NC3CCCCC3)cccc2C(=O)N([C@H](C)CO)C[C@H]1C
    i, i, i, i
> Cc1noc(C)c1NC(=O)Nc1cccc2c1O[C@H](CN(C)C(=O)NC1CCCCC1)[C@@H](C)CN([C@@H](C)CO)C2=O
    i, i, i, i
> C[C@@H]1CN([C@H](C)CO)C(=O)c2cc(NC(=O)NC3CCCCC3)ccc2O[C@@H](C)CCCCO[C@H]1CN(C)C(=O)Nc1ccc(F)cc1
    i, i, i, .
> CC(C)Nc1cccnc1N1CCN(C(=O)c2cc3cc(O)ccc3[nH]2)CC1
    i, i, i, i
> Cc1cc(C(=O)Nc2cccc3c2O[C@H](CN(C)C(=O)NC2CCCCC2)[C@@H](C)CN([C@@H](C)CO)C3=O)n(C)n1
    i, i, i, i
> C[C@H](CO)N1C[C@H](C)[C@H](CN(C)Cc2ccncc2)Oc2ccc(NC(=O)Nc3ccccc3)cc2CC1=O
    i, i, i, i
> C[C@H](CO)N1C[C@H](C)[C@@H](CN(C)C(=O)Cc2ccccc2)OCCCC[C@H](C)Oc2ccc(NC(=O)NC3CCCCC3)cc2C1=O
    i, i, i, .
> C[C@@H]1CN([C@H](C)CO)C(=O)c2cccc(NC(=O)c3ccncc3)c2O[C@@H]1CN(C)Cc1ccc2c(c1)OCO2
    i, i, i, i
> CNC[C@H]1OCCCC[C@@H](C)Oc2ccc(NC(=O)Nc3ccc4c(c3)OCO4)cc2C(=O)N([C@@H](C)CO)C[C@H]1C
    i, i, i, +

# Limited to p53 mut binder, for some of the entries so far:
smiles | p53 mut binder
Cc1cc(C(=O)Nc2cccc3c2O[C@H](CN(C)C(=O)NC2CCCCC2)[C@@H](C)CN([C@@H](C)CO)C3=O)n(C)n1 | i
C[C@@H]1CN([C@H](C)CO)C(=O)c2cc(NC(=O)NC3CCCCC3)ccc2O[C@@H](C)CCCCO[C@H]1CN(C)C(=O)Nc1ccc(F)cc1 | i
C[C@H](CO)N1C[C@H](C)[C@@H](CN(C)C(=O)Cc2ccccc2)OCCCC[C@H](C)Oc2ccc(NC(=O)NC3CCCCC3)cc2C1=O | i

# Later entries:
# Results follow in this order: STAT3 binder, p53 mut binder, Myc binder, ID4 SMM
> C=C[C@@H](OC)[C@H](OC(=O)Nc1ccc(SC)cc1)c1ccc(OCCO)cc1
    i, i, i, i
> C/C=C/C#CC#C[C@@H](O[C@@H]1O[C@H](CO)[C@@H](O)[C@H](O)[C@H]1O)[C@H](O)/C=C/CCCO
    i, i, i, i
> COc1ccc(S(=O)(=O)Nc2cccc3c2O[C@H](CN(C)CC2CC2)[C@H](C)CN([C@H](C)CO)C3=O)cc1
    i, i, i, i
> CC1C(=O)c2cc3c(cc2CCN(C)Cc2c1ccc1c2OCO1)OCO3 (configuration not stated)
    i, i, i, i
> C[C@@H]1CN([C@@H](C)CO)C(=O)c2cccc(NC(=O)Nc3ccc(C(F)(F)F)cc3)c2O[C@H]1CN(C)S(C)(=O)=O
    i, i, i, .
> C[C@H](CO)N1C[C@H](C)[C@H](CN(C)S(=O)(=O)c2cccs2)Oc2ncc(-c3cc4ccccc4o3)cc2C1=O
    i, i, i, i
> COc1ccc(-c2cc(C(F)F)n3ncc(C(=O)N(C)Cc4cnn(C)c4C)c3n2)cc1
    i, i, i, i
> O=c1n(-c2ccccc2)c(=O)n(Cc2ccccn2)n1Cc1ccccn1
    i, i, i, i
> Cn1c(SCc2ccc([N+](=O)[O-])cc2)nnc1-c1ccccn1
    i, i, i, i
> CO[C@H]1O[C@H](CO)[C@@H](OC(=O)Nc2ccccc2-c2ccccc2)[C@H](OC(=O)Nc2ccc3c(c2)OCO3)[C@@H]1OC(=O)Nc1ccc2c(c1)OCO2
    i, i, i, i
> COc1cccc(CNc2ccc3c(c2)ncn3C)c1OC
    i, i, i, i
> C=CCn1c(SCc2csc(C)n2)nc2sc3c(c2c1=O)CCCC3
    i, i, i, i
> O=C(CSc1ncnc2sc(-c3ccccc3)cc12)Nc1ccccc1Cl
    i, i, i, i
> C[C@@H]1CCCCO[C@@H](CN(C)Cc2ccccc2)[C@@H](C)CN([C@H](C)CO)C(=O)c2cc(NC(=O)CCC(F)(F)F)ccc2O1
    i, i, i, i
> COc1ccc(/C=C/C(=O)O[C@@H]2[C@@H](O)[C@@H](O)[C@H](O[C@@H]3C=C(CO)[C@H]4[C@H](O[C@@H]5O[C@H](CO)[C@@H](O)[C@H](O)[C@H]5O)OC=C[C@H]43)O[C@H]2C)cc1
    i, i, i, .
> C[C@@H]1CN([C@H](C)CO)C(=O)CCCn2cc(nn2)CO[C@H]1CN(C)C(=O)OCc1ccccc1
    i, i, i, i
> C[C@H](CO)N1C[C@H](C)[C@@H](CN(C)C)Oc2ccc(NC(=O)CCN3CCOCC3)cc2C1=O
    i, i, i, i
> C[C@H]1CN([C@@H](C)CO)C(=O)c2cc(NS(=O)(=O)c3cn(C)cn3)ccc2O[C@@H]1CN(C)C(=O)Nc1ccc2c(c1)OCO2
    i, i, i, i
> CC(C)NC(=O)Nc1ccc2c(c1)C(=O)N([C@@H](C)CO)C[C@@H](C)[C@H](CN(C)C(=O)NC1CCCCC1)OCCCC[C@@H](C)O2
    i, i, i, .
> C[C@@H]1CCCCO[C@@H](CN(C)C(=O)Nc2ccccc2)[C@@H](C)CN([C@H](C)CO)C(=O)c2cc(NC(=O)Nc3ccccc3)ccc2O1
    i, i, i, i
> C[C@H]1CCCCO[C@@H](CN(C)C(=O)Cc2ccccc2)[C@@H](C)CN([C@@H](C)CO)C(=O)c2cc(NS(=O)(=O)c3ccccc3)ccc2O1
    i, i, i, i
> Oc1ccc([C@H]2Oc3c(c(O)cc4c3[C@@H]3c5c(O)cc(O)cc5O[C@@](c5ccc(O)cc5)(O4)[C@@H]3O)C[C@H]2O)cc1
    i, i, i, .
> C[C@H]1C[C@H]2[C@@H]3CCC4=CC(=O)C=C[C@]4(C)[C@@]3(F)[C@@H](O)C[C@]2(C)[C@@]1(O)C(=O)CO
    i, i, i, i
> O=C(O)Cc1cccc(OCCCN(Cc2cccc(C(F)(F)F)c2Cl)CC(c2ccccc2)c2ccccc2)c1
    i, i, i, i
> COc1ccc(NC(=O)N(C)C[C@H]2Oc3ccc(NC(=O)Nc4ccc5c(c4)OCO5)cc3C(=O)N([C@@H](C)CO)C[C@H]2C)cc1
    i, i, i, .
> C[C@H](CO)N1C[C@H](C)[C@H](CN(C)C(=O)Nc2ccccc2)OCCCC[C@H](C)Oc2ccc(NC(=O)Nc3ccccc3)cc2C1=O
    i, i, i, i
> Cc1noc(C)c1NC(=O)N(C)C[C@@H]1Oc2ccc(N(C)C)cc2CC(=O)N([C@H](C)CO)C[C@@H]1C
    i, i, i, i
> C[C@@H]1CCCCO[C@H](CN(C)C(=O)CCC(F)(F)F)[C@H](C)CN([C@H](C)CO)C(=O)c2cc(NS(=O)(=O)c3ccccc3)ccc2O1
    i, i, i, i
> C[C@@H]1CCCCO[C@@H](CN(C)C)[C@@H](C)CN([C@@H](C)CO)C(=O)c2cc(NS(=O)(=O)c3cccs3)ccc2O1
    i, i, i, i

# High-throughput results (PubChem)

# Some of the compounds tested; rates above refer to the full screens.
